# Compound activity from PubChem BioAssay.
# A1 inhib = inducers of caspase activity in MEF A1-2A-BIM cells, primary screen, A1 inhibitor project, cell-based, CaspaseGlo luminescence; caspase-Glo luminescence, 3 h; percent of clofoctol signal, DMSO as zero; caspase activation, % (test concentration not listed); 0.51% of 21,000 active; AID 2241, 2010;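 active = most replicate scores above 10, or exactly half above 10 with mean activity above 10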;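 also: effector caspase 3 and 7 activity cleaving a DEVD luciferin substrate; 50 nL library stock added to about 30 µL; numbers are from one replicate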
# BJeLR viab HTS = BJeLR cell viability loss, primary screen, luminescence, CellTiterGlo ATP; 0.64% of 30,000 active; viability loss activity score, % (concentration not given with the values); BJeLR fibroblasts viability, 48 h; HRASV12, hTERT and SV40 LT/ST transformed; in the data active = viability loss activity score above about 50%; about a fifth of its hits are not listed in these tables;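 also: higher score means fewer live cells and less ATP luminescence; stock transfer was 50 or 100 nL into about 30 µL; 0% = vehicle wells and 100% = a reference killing control; one replicate is shown; the record names a cut of 85%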
# * = called active by the depositor; / = no result given; & = joins results of further samples. These rows are one share of the data; the hit share may differ from the screen's.
SMILES,A1 inhib,BJeLR viab HTS
C[C@H](CO)N1C[C@H](C)[C@H](CN(C)C(=O)Nc2ccccc2)Oc2ccc(NC(=O)Nc3ccccc3)cc2C1=O,0.7,-3.4
C[C@@H]1CN([C@H](C)CO)C(=O)c2cc(NS(=O)(=O)c3cccs3)ccc2O[C@@H]1CN(C)S(=O)(=O)c1ccc(F)cc1,-0.9,7.2
NS(=O)(=O)c1ccc(CCNc2nc3c(-c4ccc(Cl)cc4)nnn3c3ccccc23)cc1,-0.2,1.4
Cc1ccc(CSc2nc3ccc(C(=O)NCCN4CCCC4)cc3n2C)cc1,0.3,12.8
Cc1noc(C)c1S(=O)(=O)N(C)C[C@@H]1Oc2c(NS(=O)(=O)c3cn(C)cn3)cccc2C(=O)N([C@H](C)CO)C[C@H]1C,/,2.0
CC(C)Cc1ccc(C(C)C(=O)N2CCN(c3ccc(C(F)(F)F)cn3)CC2)cc1 (stereo not given),0.7,-5.1
CCOC(=O)c1nnn2c1nc(N1CCN(c3ccccc3)CC1)c1ccccc12,-0.7,1.2
COc1ccc(C2CC(=O)c3ccc(OC)cc3O2)cc1 (stereo not given),-1.2,-9.4
C[C@H]1CN([C@@H](C)CO)C(=O)c2cccc(NS(C)(=O)=O)c2O[C@H]1CN(C)Cc1ccc2c(c1)OCO2,/,0.4
Cc1ccc(S(=O)(=O)N2CCCC3(CCCCC3)C2)cc1,/,-4.2
CC1CCCC(NC(=O)CSCc2cnn(-c3ccccc3)c2-n2cccc2)C1C (stereo not given),0.5,-3.5
C[C@@H]1CN([C@@H](C)CO)C(=O)c2cc(N(C)C)ccc2O[C@H]1CN(C)Cc1ccc(C(F)(F)F)cc1,-0.4,5.0
COC(=O)c1[nH]c2c(c1C)C(=O)CC(c1ccccc1)C2 (stereo not given),/,60.2*
C[C@@H]1CN([C@H](C)CO)C(=O)c2cc(NS(=O)(=O)c3ccc(Cl)cc3)ccc2O[C@@H]1CN(C)Cc1ccc(C(=O)Nc2ccccc2N)cc1,/,11.4
O=C(NC1CCCC1)c1cc(=O)[nH]c2ccc(Br)cc12,0.5,-2.5
COc1ccc(CC(=O)N2c3ccccc3Sc3ccccc32)cc1OC,0.1,-1.5
Cc1ccc(OCC(=O)Nc2ccc(S(=O)(=O)N3CCCC3)cc2)cc1,-0.6,-1.5
N#Cc1c(N)n(-c2ccc(O)cc2)c2nc3ccccc3nc12,0.4,1.4
Cc1noc(C)c1NC(=O)Nc1ccc2c(c1)C(=O)N([C@@H](C)CO)C[C@@H](C)[C@H](CN(C)Cc1ccc(-c3ccccc3)cc1)O2,-0.1,-0.3
COc1ccc(COCC(O)CS(=O)(=O)Cc2ccc(C)cc2)cc1 (stereo not given),1.5,2.6

# Of the compounds above, six have a halogen.
SMILES,A1 inhib,BJeLR viab HTS
C[C@@H]1CN([C@H](C)CO)C(=O)c2cc(NS(=O)(=O)c3cccs3)ccc2O[C@@H]1CN(C)S(=O)(=O)c1ccc(F)cc1,-0.9,7.2
NS(=O)(=O)c1ccc(CCNc2nc3c(-c4ccc(Cl)cc4)nnn3c3ccccc23)cc1,-0.2,1.4
CC(C)Cc1ccc(C(C)C(=O)N2CCN(c3ccc(C(F)(F)F)cn3)CC2)cc1 (stereo not given),0.7,-5.1
C[C@@H]1CN([C@@H](C)CO)C(=O)c2cc(N(C)C)ccc2O[C@H]1CN(C)Cc1ccc(C(F)(F)F)cc1,-0.4,5.0
C[C@@H]1CN([C@H](C)CO)C(=O)c2cc(NS(=O)(=O)c3ccc(Cl)cc3)ccc2O[C@@H]1CN(C)Cc1ccc(C(=O)Nc2ccccc2N)cc1,/,11.4
O=C(NC1CCCC1)c1cc(=O)[nH]c2ccc(Br)cc12,0.5,-2.5

# (continued)
SMILES,A1 inhib,BJeLR viab HTS
O=C(c1ccc(COc2c(F)c(F)c(F)c(F)c2F)o1)N1CCOCC1,0.6,0.7
C[C@H](CO)N1C[C@H](C)[C@@H](CN(C)C(=O)NC2CCCCC2)Oc2ccc(NC(=O)Cc3ccccc3)cc2C1=O,0.4,-0.3
CCN(CC)C(=O)Cn1ncc2c(C)n(Cc3ccccc3F)c(C)c2c1=O,0.0,-6.7
CCOc1ccc(C2(C)CC(C)(C)Nc3ccccc32)cc1 (stereo not given),-0.4,4.1
Cc1nccn1-c1nc(-c2ccc(F)cc2)cc(C(F)(F)F)n1,/,-1.2
CS(=O)(=O)N1CCC(C(=O)NCCc2ccccc2)CC1,0.1,0.8
O=C(O)CSc1c(-c2cccs2)[nH]c2ccccc12,0.1,1.7
C[C@H]1CN([C@@H](C)CO)C(=O)c2cccc(NC(=O)c3ccc(-c4nccs4)cc3)c2O[C@H]1CN(C)Cc1ccccc1,/,0.2
C[C@@H]1CN([C@H](C)CO)C(=O)c2cc(NS(=O)(=O)c3cccs3)ccc2O[C@H]1CN(C)Cc1ccc(Oc2ccccc2)cc1,0.8,-1.5
O=C(CSc1ccc(F)cc1Cl)C12CC3CC(CC(C3)C1)C2,0.5,-2.6
C[C@@H]1CN([C@@H](C)CO)C(=O)c2cccc(NS(=O)(=O)c3cn(C)cn3)c2O[C@H]1CN(C)CC1CCCCC1,/,-0.7
OC(CSc1nc(-c2ccccc2)n(-c2ccccc2)n1)C(F)(F)F (stereo not given),-0.2,3.1
Cc1nnc(Sc2cc(C(=O)NCCN(C)Cc3ccccc3)c3ccccc3n2)s1,0.1,-2.9
C=CCSc1ncccc1C(=O)NCc1ccc(C)cc1,0.2,0.7
CCN(CC)C(=O)c1sc(N2C(=O)Nc3ccccc3N2O)c(C(=O)OC)c1C,0.0,1.1
C[C@H](CO)N1C[C@H](C)[C@H](CN(C)S(=O)(=O)c2cn(C)cn2)Oc2ccc(NC(=O)CCCN(C)C)cc2C1=O,-0.8,0.5
O=C(CC[n+]1ccc(/C=N/O)cc1)NCc1ccccc1,0.4,-5.9
COc1ccc(NC(=O)Nc2cccc3c2O[C@@H](CN(C)S(=O)(=O)c2cccs2)[C@H](C)CN([C@@H](C)CO)C3=O)cc1,/,2.8
C[C@@H]1CN([C@H](C)CO)C(=O)c2cccc(NS(=O)(=O)c3ccccc3)c2O[C@H]1CN(C)S(=O)(=O)c1cccs1,/,-4.0
Cc1ccc(S(=O)(=O)Nc2cccc3c2O[C@@H](CN(C)Cc2ccc(Cl)c(Cl)c2)[C@H](C)CN([C@H](C)CO)C3=O)cc1,/,-0.8

# Part of the list above in order of count of non-hydrogen atoms, ascending.
SMILES,A1 inhib,BJeLR viab HTS
CCOc1ccc(C2(C)CC(C)(C)Nc3ccccc32)cc1 (stereo not given),-0.4,4.1
OC(CSc1nc(-c2ccccc2)n(-c2ccccc2)n1)C(F)(F)F (stereo not given),-0.2,3.1
C[C@@H]1CN([C@@H](C)CO)C(=O)c2cccc(NS(=O)(=O)c3cn(C)cn3)c2O[C@H]1CN(C)CC1CCCCC1,/,-0.7

# (more compounds)
SMILES,A1 inhib,BJeLR viab HTS
COC(=O)c1ccc(S(=O)(=O)NC2CCN(Cc3ccccc3)CC2)n1C,/,4.6
Cc1ccc(NC(=O)N(C2=NCC(C)(C)S2)c2ccc(F)c(Cl)c2)cc1,-0.8,3.6
C[C@H]1CN([C@@H](C)CO)C(=O)c2cccc(NC(=O)c3cnccn3)c2O[C@@H]1CN(C)S(=O)(=O)c1ccccc1,/,-1.8
O=C1NC(=Nc2cccc3ccccc23)SC1(CO)CO,-0.2,4.8
C[C@H]1CN([C@@H](C)CO)C(=O)c2cc(NC(=O)Cc3cn(C)c4ccccc34)ccc2O[C@H]1CN(C)Cc1ccc2c(c1)OCO2,0.1,10.4
O=C1c2ccccc2C(=O)N1CCc1cn2cccnc2n1,0.3,-2.9
Cc1ccc(S(=O)(=O)N(C)C[C@@H]2Oc3ccc(N(C)C)cc3C(=O)N([C@@H](C)CO)C[C@@H]2C)cc1,0.1,-10.7
O=C(CSc1ccc(-c2ccncc2)nn1)Nc1ccccc1,0.1,-2.6
COC(=O)Cn1ncn2nc(-c3cccs3)cc2c1=O,0.4,5.8
C[C@H](CO)N1C[C@H](C)[C@H](CN(C)CC2CC2)Oc2c(NS(=O)(=O)c3ccc(Cl)cc3)cccc2C1=O,/,3.4
CCCCc1ccc(NC(=O)CC)cc1,-1.2,-4.6
COc1ccc(-c2cc(C(=O)NC3CCCC3)c3ccccc3n2)cc1,-1.2,0.3
Cc1cc(C)c2c(=O)cc(C(F)(F)F)oc2c1,0.2,0.2
C[C@H]1CN([C@@H](C)CO)C(=O)c2cc(NC(=O)Cc3cn(C)c4ccccc34)ccc2O[C@H]1CN(C)C,0.0,1.7
C[C@H]1CN([C@@H](C)CO)C(=O)c2cccc(NC(=O)c3ccncc3)c2O[C@H]1CN(C)S(=O)(=O)c1ccccc1,/,-0.1
CCCCN(C)C(=O)Cn1ncc2c3ccccc3n(C)c2c1=O,0.3,-0.8
COc1ccc(-c2cc(-c3ccccc3)c(C#N)c(SC3CCCCC3=O)n2)cc1 (stereo not given),-1.4,9.8
C[C@H](CO)N1C[C@H](C)[C@@H](CN(C)S(=O)(=O)c2ccc(Cl)cc2)Oc2c(NS(=O)(=O)c3ccc(Cl)cc3)cccc2C1=O,/,1.0
Cn1c(C(=O)NCCCN2CCCC2=O)cc2sccc21,-0.6,0.0
Cc1ccc2c(c1)c1c(n2CCC(=O)O)C(=O)CCC1,0.3,1.4
Cc1ccc(S(=O)(=O)N(C)C[C@@H]2Oc3c(NC(=O)C4CC4)cccc3C(=O)N([C@@H](C)CO)C[C@@H]2C)cc1,/,-1.2
COc1ccc(S(=O)(=O)Nc2cccc3c2O[C@H](CN(C)C(=O)Nc2c(C)noc2C)[C@H](C)CN([C@H](C)CO)C3=O)cc1,/,-3.9
Cc1ccc(NC(=O)c2cc3c(=O)oc4ccccc4c3n2C)cc1F,/,2.3
C[C@@H]1CN([C@H](C)CO)C(=O)c2cccc(NC(=O)NC3CCCCC3)c2O[C@H]1CN(C)C,/,6.0
C[C@H]1CN([C@@H](C)CO)C(=O)c2cc(NS(=O)(=O)c3ccc(F)cc3)ccc2O[C@H]1CN(C)Cc1ccc(C(=O)O)cc1,0.1,-1.8
CC(=O)NC(Nc1ccccc1)(C(F)(F)F)C(F)(F)F,0.7,-3.2
O=C(O)c1cc(Sc2ccccc2)nc2ccccc12,-0.3,-1.4
COc1ccc(NC(=O)Nc2cccc3c2O[C@H](CN(C)S(=O)(=O)c2ccc(F)cc2)[C@H](C)CN([C@H](C)CO)C3=O)cc1,/,1.5
S=C(c1ccccc1)N1CCN(Cc2ccccc2)CC1,0.3,-0.1
C[C@H](CO)N1C[C@H](C)[C@H](CN(C)C(=O)Nc2cccc3ccccc23)Oc2c(NS(=O)(=O)c3ccc(F)cc3)cccc2C1=O,/,0.1
Cc1noc(C)c1S(=O)(=O)Nc1cccc2c1O[C@@H](CN(C)Cc1ccc(-c3ccccc3)cc1)[C@@H](C)CN([C@H](C)CO)C2=O,/,1.2
COc1ccc(CCN(C)CCCC(C#N)(c2cc(OC)c(OC)c(OC)c2)C(C)C)cc1OC (stereo not given),0.3&0.1,-1.0&-1.5
S=C(Nc1ccc2[nH]ccc2c1)NC1CCCCC1,0.0,-2.1
CN1CCN(Cc2c(C#N)c3ccccc3n2C)CC1,-0.8,-0.3
C[C@H](CO)N1C[C@H](C)[C@@H](CN(C)Cc2ccc(C(=O)O)cc2)Oc2ccc(NC(=O)NC3CCCCC3)cc2C1=O,-0.1,7.2
COc1ccc(S(=O)(=O)Nc2ccc3c(c2)C(=O)N([C@H](C)CO)C[C@H](C)[C@H](CN(C)Cc2ccc(Oc4ccccc4)cc2)O3)cc1,-0.3,-2.5
Cc1cccc(Cn2c(=O)n(-c3ccccc3)c(=O)c3sccc32)c1,/,0.1
C[C@@H]1CN([C@@H](C)CO)C(=O)c2cccc(NC(=O)Nc3ccc4c(c3)OCO4)c2O[C@H]1CN(C)CC1CC1,/,-0.8
C[C@H](CO)N1C[C@H](C)[C@@H](CN(C)CC2CC2)Oc2c(NS(=O)(=O)c3cn(C)cn3)cccc2C1=O,/,-5.2
CNC[C@H]1Oc2c(NS(C)(=O)=O)cccc2C(=O)N([C@H](C)CO)C[C@H]1C,/,-2.2
Cc1noc(C)c1NC(=O)N(C)C[C@@H]1Oc2ccc(NC(=O)NC3CCCCC3)cc2C(=O)N([C@H](C)CO)C[C@H]1C,0.0,-1.8
Cn1c(CSCC(=O)Nc2ccccc2)nnc1SCc1ccc(Cl)cc1,0.4,-4.5
CS(=O)(=O)c1ccc2nc(NC(=O)C3CCCO3)sc2c1 (stereo not given),0.2,-5.7
COc1ccc(CN(C)C[C@H]2Oc3ccc(NC(=O)CCN4CCOCC4)cc3C(=O)N([C@H](C)CO)C[C@H]2C)cc1,-0.7,3.9
C[C@H](CO)N1C[C@H](C)[C@H](CN(C)C(=O)Nc2ccc(F)cc2)Oc2ccc(NS(=O)(=O)c3ccc(Cl)cc3)cc2C1=O,-0.3,-2.4
Cc1ccc(SCc2nccn2Cc2ccc(Cl)cc2)cc1,0.9,-3.9
COc1ccc(C2C3CCc4ccccc4C3=NN2C(=O)c2cccs2)cc1 (stereo not given),0.3,3.5
O=C(O)CC1(CC2=NS(=O)(=O)c3ccccc3N2)CCCC1,0.8,-2.2
COc1cccc2c1oc(=O)c1c(NC(C)=O)nc(-c3cccs3)nc12,/,-5.7
CC(=NC1CC1)c1c(C)[nH]n(-c2nc3ccccc3s2)c1=O,-6.1,20.2
O=C1c2ccccc2C2=Nc3ccccc3SC(c3ccc(F)cc3)C12 (stereo not given),0.7,0.1
CNC[C@H]1Oc2ccc(NS(=O)(=O)c3ccc(F)cc3)cc2C(=O)N([C@H](C)CO)C[C@H]1C,-0.4,2.5
CCCc1c(Cc2c(F)cccc2Cl)c(=O)oc2cc(O)ccc12,3.6,2.3
O=C(NC1=NCCS1)c1cc2ccccc2o1,-6.3,13.2
COc1ccc(-c2csc(NC(=O)Cc3cccc4ccccc34)c2C(=O)O)cc1,-0.4,1.3
Cc1ccc(-c2nn(-c3cccc(F)c3)c3c2cnc2cc(F)c(F)cc23)cc1,/,-4.5
